Bioassay records from PubChem BioAssay.
Hsc70 ATP site = small molecules displacing fluorescent ligand from Hsc70 – biochemical, fluorescence polarization, primary screen (AID 568) | displacement, % at 20 µM; hits with a dose series show IC50 in µM | Hsc70 fluorescence polarization, probe displacement; higher % means a stronger effect; strong numbers were not always called active | 83,000 tested, under 10 active;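 active = displacement above 50% without optical interference and an IC50 on retest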;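 also: ATPase domain with a fluorescein-tagged ATP probe; 0% = vehicle and 100% = excess ADP; read after one hour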
MT1-MMP promoter = MT1-MMP gene expression reporter suppression – cell-based, luciferase reporter, luminescence (AID 618); MT1-MMP promoter luciferase reporter cells, luminescence; 87,000 tested, 0.62% active; calls from a first round at 10 µM; hits with a dose series show EC50 in µM;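 active = over half of the reporter light lost at 10 µM or EC50 under 50 µM; inactive = the rest and hits that failed the dose series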;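 also: actives suppress MT1-MMP promoter-driven transcription so potencies describe inhibitors; HT1080 fibrosarcoma cells; overnight exposure; toxic or luciferase-blocking compounds were not removed from the actives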
WNV protease inh = inhibitors of West Nile virus NS2B-NS3 protease | z-score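 (tested at a level between 10 and 100 µM)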 | 65,000 tested, 0.18% active | P06935 | WNV NS2B-NS3 protease, fluorogenic substrate Ex360/Em465; active compounds read low;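 active = z-score at -3 or under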;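 also: score is relative to mean and spread of the compound wells of a plate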
Target sequence (P06935 1371-1501 limits assumed): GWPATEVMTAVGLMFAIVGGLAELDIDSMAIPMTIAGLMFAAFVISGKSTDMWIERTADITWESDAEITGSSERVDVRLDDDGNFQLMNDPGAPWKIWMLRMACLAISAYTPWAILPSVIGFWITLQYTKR
Target sequence (P06935 1502-1679 limits assumed): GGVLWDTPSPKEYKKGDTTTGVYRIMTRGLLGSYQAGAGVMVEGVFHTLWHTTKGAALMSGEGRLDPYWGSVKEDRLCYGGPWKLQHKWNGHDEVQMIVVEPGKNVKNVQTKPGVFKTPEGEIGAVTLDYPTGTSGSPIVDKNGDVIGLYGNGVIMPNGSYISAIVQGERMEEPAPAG
* = called active by the depositor; i = inactive; · = no result given.

| canonical_smiles | Hsc70 ATP site | MT1-MMP promoter | WNV protease inh |
| --- | --- | --- | --- |
| COc1ccc(N(C(C)=O)S(=O)(=O)c2cccs2)cc1 | -1.8% | i | · |
| CCC1S/C(=C(\C#N)C(N)=O)N(c2ccc(F)cc2)C1=O (stereo unspecified) | -2.7% | i | -0.0063 |
| O=C1CN=C(Nc2ccccc2Cl)N1c1ccccc1 | -0.3% | i | · |
| CCC(=O)N(Cc1ccc(C)cc1)Cc1cc2cc3c(cc2[nH]c1=O)OCO3 | 1.6% | i | · |
| COc1ccc(CCNC(=O)Cn2c(=O)n(Cc3ccco3)c(=O)c3ccc(Cl)cc32)cc1OC | -8.6% | i | -0.06 |
| O=C(NCCc1ccccc1)C1CCN(S(=O)(=O)c2cccs2)CC1 | 2.2% | i | 1.1 |
| CC(=C1C(=O)c2ccccc2C1=O)N1CCN(C/C=C/c2ccccc2)CC1 | 2.6% | i | · |
| O=S(=O)(NC1CCCCCC1)c1ccc(Br)s1 | 1.6% | i | · |
| COc1ccc(NC(=O)N(CCCN(C)C)Cc2cc3cc(OC)ccc3[nH]c2=O)cc1 | 3.4% | i | 0.02 |
| COc1cc2c(c(O)c1OC)C(=O)C(OC)CCC2 (stereo unspecified) | -1.1% | i | -1.3 |
| Cc1cccc2cc(CN(CC3CCCO3)C(=O)c3ccncc3)c(=O)[nH]c12 (stereo unspecified) | -4.1% | i | -1.1 |
| Cc1c(C(=O)NCC2CCCO2)sc2nc(-c3ccccc3)cn12 (stereo unspecified) | 0.2% | i | 0.86 |
| CCCCc1c(O)nc2n(c1=O)CCS2 | -3.8% | i | -0.3 |
| COCCCNC(=O)c1cc2c(=O)n3cccc(C)c3nc2n(C(C)C)c1=N | 0.3% | i | 2 |
| CCOC(=O)C1CCCN(c2c(NCCN(C)Cc3ccccc3)c(=O)c2=O)C1 (stereo unspecified) | 2.9% | i | 0.99 |
| CCOC(=O)C1CCCN(S(=O)(=O)c2cc(Br)cc3c2N(C(=O)C2CC2)CC3)C1 (stereo unspecified) | -4.9% | i | -0.17 |
| COc1ccc(N2CCN(C(=O)CCN3C(=O)c4ccccc4S3(=O)=O)CC2)cc1 | -8.7% | i | 0.6 |
| CCc1cccc(CC)c1NC(=O)CN1CC(C)SC1=NC1CCCCC1 (stereo unspecified) | 3.6% | i | · |
| Brc1ccc(-c2cnc3n2CCCC3)cc1 | -7.3% | i | -0.22 |
| COCCCNC(=O)Cn1cc2c(n1)CCCCC2 | -0.9% | i | -0.83 |
| O=C(OC1CCOC1=O)c1ccc(-c2nc3ccccc3s2)s1 (stereo unspecified) | -0.5% | i | 0.09 |
| COc1nc(Nc2ccc(C(C)=O)cc2)nc(OC)n1 | -8.0% | i | -0.12 |
| CCCC(=O)Nc1sc2c(c1C#N)CC(C)(C)NC2(C)C | -1.5% | i | · |
| Cc1nn(C(C)(C)C)c(OC(=O)c2ccc(Br)o2)c1Sc1ccccc1 | 1.7% | i | · |
| Cc1cc(C)nc(Nc2ccc(N3CCCC3)cc2)n1 | -3.1% | i | 0.03 |
| Clc1ccc(C2=Nn3c(nnc3-c3cccs3)SC2)cc1 | 3.5% | i | · |
| O=C1/C(=C\Nc2ccc(OC(F)(F)F)cc2)CCN1c1ncccn1 | 6.3% | i | · |
| Cc1nccc2[nH]c(=O)c(C(=O)NC3CCN(Cc4ccccc4)CC3)cc12 | 2.6% | i | -0.004 |
| CCSc1nnc2n(-c3ccc(OC)cc3)c(=O)c3c4c(sc3n12)CCCC4 | -1.6% | i | · |
| Cc1cc(/C=N/n2cnnc2)c(C)n1-c1ccc2ncccc2c1 | 2.8% | i | -0.17 |
| O=C(O)c1cccc(CN2C(=O)CSC2=O)c1 | -0.1% | i | -0.95 |
| CC(C)CN(C(=O)c1ccc(=O)n(C)n1)c1nc2ccccc2s1 | 8.9% | i | 0.42 |
| CCOC(=O)N1CCc2c(sc3c2C(=O)NC(c2ccccc2)N3)C1 (stereo unspecified) | 4.0% | i | 1.4 |
| CCCCCOC(=O)C1[C@H]2C(=O)N(CCCOC)C[C@]23C=C[C@H]1O3 (stereo partly specified) | -0.9% | i | -1.2 |
| CCN1CCCC1CNC(=O)c1nn(-c2ccc(C)cc2)c(=O)c2c1c1ccccc1n2C (stereo unspecified) | -3.0% | i | 0.3 |
| CCOc1ccc(C(C)=O)cc1CSc1nnc(-c2ccoc2C)n1N | -3.6% | i | -0.19 |
| CCC1(C)Cc2c(sc(NC(=O)CCC(=O)O)c2C#N)CO1 (stereo unspecified) | -5.1% | i | 1.2 |
| CC(=O)Nc1ccc(S(=O)(=O)NCc2ccc(C(=O)NCc3ccc(Cl)cc3)cc2)cc1 | 2.4% | i | · |
| CCOCCCNC(=O)C(c1ccc(OC)cc1)N(Cc1ccc2c(c1)OCO2)C(=O)CNC(C)=O (stereo unspecified) | 3.8% | i | · |
| O=C(NCc1cccnc1)c1ccc(S(=O)(=O)N2CCCCC2)cc1 | 0.7% | i | · |
| Cc1ccc(C(=O)Nc2cnc3ccccc3c2)cc1 | -3.5% | 0.2µM* | · |
| CN(C)c1ccc(CN2CCCC(O)C2)cc1 (stereo unspecified) | 1.0% | i | 0.55 |
| CCOC(=O)N1CC=C2C(C#N)=C(N)C(C#N)(C#N)[C@H](c3cccs3)[C@H]2C1 | 1.9% | i | -0.28 |
| OCCNCC(O)Cn1ccc2ccccc21 (stereo unspecified) | 4.9% | i | 0.41 |
| CC(C)OC(=O)CC(=O)CSc1nc2c(cc1C#N)CCCCCC2 | -6.2% | i | · |
| COCCn1nnnc1CN1CCOCC1 | -0.9% | i | 1.1 |
| Cc1cccc(C(CC(=O)N2CCCC2)c2ccccc2)c1O (stereo unspecified) | 3.0% | i | 1.5 |
| CC(C)Cc1nc(SCC(=O)NCc2ccccc2)n[nH]1 | -0.1% | i | -1.3 |
| COc1ccc(C2N(c3cc(Cl)ccc3OC)C(=O)C3CCCN32)c(OC)c1 (stereo unspecified) | 4.1% | i | -0.66 |
| COc1ccc(C(=O)CSc2ncn[nH]2)cc1OC | -4.6% | i | -1.1 |
| O=C(Sc1nnnn1C1CCCCC1)c1cccs1 | 2.9% | i | 0.0092 |
| O=C(OCCN1C(=O)c2ccccc2C1=O)c1cccc(OC(F)F)c1 | -3.7% | i | 2.2 |
| COc1ccc(-c2ccc(=O)n(CC(=O)Nc3cccc(O)c3)n2)cc1OC | -3.5% | i | 0.1 |
| COC(=O)c1cccc(S(=O)(=O)N2CCC(n3nnc4cc(F)ccc43)CC2)c1 | 2.1% | i | 1.6 |
| CCCCn1c(CN2CCN(C(=O)c3ccco3)CC2)nc2c1c(=O)n(C)c(=O)n2C | 1.4% | i | -0.61 |
| O=c1c2[nH]c3ccc(F)cc3c2ncn1CCCn1ccnc1 | 2.1% | i | 0.58 |
| COc1cccc(NC(=O)c2cccnc2)c1 | -1.5% | i | -0.48 |
| O=C(NC(Cc1ccc(F)cc1)C(=O)O)c1ccccc1 (stereo unspecified) | 2.8% | i | 0.6 |
| CCc1ccc(CC)c(S(=O)(=O)Nc2ccc(O)c(C(=O)O)c2)c1 | -1.5% | i | -0.07 |
| CCOC(=O)CC(=O)CSc1nc2c(cc1C#N)CCCCC2 | -3.9% | i | 0.79 |

Profiles from above. Screens in order: Hsc70 ATP site	MT1-MMP promoter	WNV protease inh
CCOC(=O)N1CC=C2C(C#N)=C(N)C(C#N)(C#N)[C@H](c3cccs3)[C@H]2C1 as listed: 1.9%	i	-0.28
CCOC(=O)N1CCc2c(sc3c2C(=O)NC(c2ccccc2)N3)C1 (stereo unspecified) as listed: 4.0%	i	1.4
COc1cccc(NC(=O)c2cccnc2)c1 as listed: -1.5%	i	-0.48
Cc1cccc(C(CC(=O)N2CCCC2)c2ccccc2)c1O (stereo unspecified) as listed: 3.0%	i	1.5

(list continues)
| canonical_smiles | Hsc70 ATP site | MT1-MMP promoter | WNV protease inh |
| --- | --- | --- | --- |
| Cc1ccc(C2C3=C(CC(C)(C)CC3=O)Nc3onc(C)c32)cc1 (stereo unspecified) | -4.0% | i | · |
| CC(=O)N1CCN(CCN=CC2=C(O)CC(c3ccc(Cl)cc3)CC2=O)CC1 (stereo unspecified) | 0.2% | i | -0.71 |
| CSc1nc(-c2ccco2)nn1C(=O)c1cccs1 | -4.7% | i | -1.3 |
| Cc1cc(=O)n2nc(N3CCCC(C(=O)NCCc4ccccc4)C3)sc2n1 (stereo unspecified) | -1.1% | i | -0.96 |
| Cc1ccc2oc(=O)c3cnn(CC(=O)N4CCCCC4C)c3c2c1 (stereo unspecified) | 3.0% | i | -0.26 |
| CCOC(=O)C1CCCN(C(=O)c2cc(Nc3ccc(OC)c(OC)c3)nc3ccccc23)C1 (stereo unspecified) | -2.9% | i | -0.41 |
| O=c1c2ccccc2nnn1Cc1ccccn1 | 3.1% | i | -0.92 |
| O=C(CCC(=O)N1CCCC1)Nc1nnc(C(F)(F)F)s1 | 8.1% | i | 2.4 |
| CCOC(=O)N1CCN(C(=O)CSc2nc3c(cnn3-c3ccc(C)cc3)c(=O)[nH]2)CC1 | 5.2% | i | 0.7 |
| COC(=O)c1ccc2c(c1)NC(=O)C(N1CCOCC1)S2 (stereo unspecified) | -4.7% | i | 0.88 |
| O=C(CSc1nnc(-c2ccco2)o1)N1c2ccccc2CCc2ccccc21 | -6.2% | i | 0.03 |
| CC1=C(C(=O)Nc2ccc(F)cc2)C(c2ccncc2)C2=C(CCCC2=O)N1 (stereo unspecified) | 0.7% | i | 0.13 |
| C=CCOc1ccc(NC(=O)C2CC(=O)N(C(C)C)C2)cc1 (stereo unspecified) | 0.2% | i | -0.46 |
| Cc1nnc(NC(=O)c2cc3n(n2)C(C(F)(F)F)CC(C2CC2)N3)s1 (stereo unspecified) | -0.7% | i | 1.5 |
| O=C(Nc1ccncc1)Nc1ccccn1 | 5.9% | i | 0.6 |
| Cc1c(NS(=O)(=O)c2ccc3c(c2)c(=O)n(C)c(=O)n3C)c(=O)n(-c2ccccc2)n1C | 5.5% | i | -0.66 |
| Cc1cc(NC(=O)CSc2nnc(C(C)N(C)C)n2Cc2ccccc2)no1 (stereo unspecified) | -3.1% | i | 0.18 |
| COc1ccc(C2=CSC3=C(C(=O)c4cccc(S(=O)(=O)N(C)C)c4)CCN23)cc1 | -30% | i | · |
| COc1cccc(S(=O)(=O)Nc2ccc(C(=O)N3CCOCC3)cc2)c1 | -4.9% | i | 0.87 |
| CC1CCCN(C(=O)c2ccc3c(c2)C(=O)N(CCC2=CCCCC2)C3=O)C1 (stereo unspecified) | 5.8% | i | 0.62 |
| Nn1c(Cc2ccccc2F)nnc1SCn1nnc2ccccc2c1=O | 3.3% | i | 1.6 |
| Cc1ccc(OCc2nnc(SCC(=O)Nc3cc(C)on3)n2C)cc1 | 2.0% | i | 0.51 |
| O=[N+]([O-])c1cccnc1N1CCC(c2cc(-c3ccc(Cl)cc3)n[nH]2)CC1 | 2.7% | i | · |
| Cn1c(=O)c2c(nc(Oc3ccccc3)n2C)n(C)c1=O | -2.6% | i | · |
| Cc1cc(C)nc(SCCN2CCOCC2)n1 | 1.7% | i | · |
| O=C(CSc1ncc(-c2ccc(F)cc2)[nH]1)NCc1ccco1 | -1.1% | i | 0.49 |
| CCc1nnc(NC(=O)C2CCCN2S(=O)(=O)c2ccc(C)cc2)s1 (stereo unspecified) | 5.5% | i | -0.42 |
| CCOC(=O)N1CCC(N2CCN(S(=O)(=O)c3ccc(Cl)cc3)CC2)CC1 | -0.6% | i | · |
| CCOC(=O)CN1C(=O)C(O)=C(C(C)=O)C1c1ccc([N+](=O)[O-])cc1 (stereo unspecified) | -2.3% | i | · |
| Cc1cccc(NC(=O)C2c3ccccc3C(=O)N3CCc4ccccc4C23)n1 (stereo unspecified) | 1.6% | i | 0.52 |
| CCOC(=O)CN(C(=O)CSc1nnc(CNc2ccc(C)cc2C)n1CC)c1ccccc1 | 4.1% | i | 0.5 |
| O=C1NCC(O)=C1C=NC12CC3CC(CC(C3)C1)C2 | -5.0% | i | -0.27 |
| CC(=O)c1c(N2CCN(Cc3ccccc3)CC2)[nH]c(-c2ccccc2)nc1=S | -21% | i | 0.35 |
| CCOC(=O)c1c(N)sc(C(=O)N2CCCCC2)c1C | 1.3% | i | · |
| O=C(Nc1ccccc1N1CCN(c2ccc(F)cc2)CC1)C12CC3CC(CC(C3)C1)C2 | -3.4% | i | · |
| CCC(=O)Nc1ccccc1Nc1cc(C#N)c(C#N)cc1[N+](=O)[O-] | -1.5% | i | · |
| COc1ccc(Cn2c(C3CC3)nc3ccc(NC(C)=O)cc3c2=O)cc1 | -7.1% | i | -0.65 |
| Cc1ccc(S(=O)(=O)NC(C)C(=O)Nc2ccccc2C(=O)N2CCCC2)cc1 (stereo unspecified) | -0.7% | i | -1.1 |
| CC(=O)Nc1nc(C(=O)Nc2c(C)n[nH]c2C)cs1 | 2.5% | i | -0.51 |
| Cc1cc2n(n1)C(c1ccco1)Nc1ccccc1-2 (stereo unspecified) | -1.2% | i | -0.79 |
| O=C(Nc1ccc(F)cc1)NC1(C(=O)NCc2ccc3c(c2)OCO3)CCCCC1 | 4.1% | i | · |
| CC(C)(C)NCC(O)COCc1ccc(Cl)cc1 (stereo unspecified) | 1.6% | i | · |
| O=C(CSc1ccc2nnc(-c3ccc(F)cc3)n2n1)N1CCCCC1 | 1.0% | i | 1.7 |
| Cc1cc(C(=O)CSc2nnc(NCc3ccccc3)s2)c(C)n1C | -2.7% | i | 1.8 |
| O=C(CCn1nc(-c2ccc(Cl)cc2)c2ccccc2c1=O)NCC1CCCO1 (stereo unspecified) | 2.2% | i | · |
